HIV Env fusion: blocks HIV Env-driven cell-cell fusion | HeLa-JRFL Env/CEM21 cell fusion, luciferase | inhibition, % at 12.3 µM | 360,000 tested, 1.1% active;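 active = mean replicate inhibition score of at least 50 and every replicate individually at or above 50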;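 note: 0% = plate neutral controls and 100% = maraviroc near 300 nM; one replicate is shown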
UUG fidelity: modulators of start codon recognition fidelity in yeast. S. cerevisiae UUG-firefly luciferase reporter, luminescence/redox ratio. activity score, % at 18.7 µM. 350,000 tested, 0.13% active;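 active = replicate mean at a twofold rise or more, about +100% in these data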;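 note: firefly luciferase made from a UUG start codon reports start codon fidelity; reporter light over untreated wells divided by growth signal over untreated wells; some hits fall short of that in this replicate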
Rce1 inhib: inhibitors of yeast Ras-converting enzyme. Q03530. yeast membranes, quenched prenylated peptide cleavage fluorescence. calls only. 290,000 tested, 0.27% active. AID 2563;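 active = fall in fluorescence gain of 50% or more versus controls, with final raw signal at or below 3038400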;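 note: plate controls were neutral control wells for no effect and wells lacking membranes for full effect; tested at 10 µM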
Target sequence (Q03530 whole entry, looked up): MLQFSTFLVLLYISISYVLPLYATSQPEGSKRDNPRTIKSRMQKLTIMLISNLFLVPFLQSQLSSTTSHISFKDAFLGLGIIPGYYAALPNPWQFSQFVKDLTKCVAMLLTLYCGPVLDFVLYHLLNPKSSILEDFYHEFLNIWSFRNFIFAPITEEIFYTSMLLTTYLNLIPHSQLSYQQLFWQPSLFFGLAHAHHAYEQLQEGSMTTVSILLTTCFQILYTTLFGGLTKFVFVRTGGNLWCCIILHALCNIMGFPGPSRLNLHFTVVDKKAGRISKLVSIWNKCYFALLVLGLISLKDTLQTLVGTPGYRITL
MT1-MMP act inh: blocks activation of human MT1-MMP; P50281; HT1080 RFP-PRO-GFP cells, GFP/RFP ratio fluorescence, overnight; percent of plate control window, DMSO zero; GFP/RFP ratio change, % at 20 µM; 360,000 tested, 0.061% active; AID 651647;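 active = GFP/RFP ratio change of at least 30% with cell ATP level not reduced by more than half and red fluorescence within 50% of control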; note: strong numbers were not always called active
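Compound: 20 µM single dose, 1% DMSO / System: HT1080 RFP-PRO-GFP cells / Controls: DMSO and RFP-L50D-GFP cell wells / Read-out basis: GFP/RFP fluorescence ratio / Schedule: overnight compound exposure at 37 °C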
CSC inhib: blocks cancer stem cells; cancer stem cell-like cells viability, luminescence; inhibition, % at 7.5 µM; 300,000 tested, 1.1% active; AID 2717;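 active = mean at 75% or more and at least half the replicates too; tested in HMLE shEcad cells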;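 note: 0% = median of negative and 100% = median of positive control wells; the first replicate is given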
eIF4H FP inh: inhibitors of RNA binding by human eIF4H | Q15056 | inhibition, % at 35 µM | eIF4H fluorescence polarization binding assay | 290,000 tested, 0.94% active;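 active = 50% or more with normal probe brightness, or confirmed in later tests; about a fifth of its hits are not listed in these tables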;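 note: calls also rest on retests at 20 µM and on dose response follow-up; 0% = protein and probe with vehicle and 100% = probe without protein; strong numbers were not always called active; many hits fall short of the cut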
PABP polyA inh: blocks human PABP binding to poly(A) RNA; P11940; fluorescence polarization; inhibition, % at 35 µM; 290,000 tested, 1% active;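 active = 50% or more with normal probe brightness, or confirmed in later tests; about a fifth of its hits are not listed in these tables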;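 note: calls also rest on retests at 20 µM and on dose response follow-up; controls were probe without protein and protein plus probe with vehicle; some compounds called inactive have numbers as strong as hits; many hits fall short of the cut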
eIF4H FP inh retest: further read-out of eIF4H FP inh, marked with its call; inhibition, %; compound at 20 µM; confirmation average;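 mean of two retest wells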
PABP polyA inh retest: also measured in PABP polyA inh; calls as there; inhibition, %; compound at 20 µM; confirmation repeats;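 mean of two retest wells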
MT1-MMP act inh RFP: further read-out of MT1-MMP act inh, marked with its call; RFP signal change, %; measured here: RFP expression control read;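 0 = vehicle wells; hits needed this value within 50% of zero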
* marks the source's active call; other numbers are inactive results; i = inactive; · = not tested or not shown; & = joins results of further samples; [ ] = remark or other dose.

SMILES	HIV Env fusion	UUG fidelity	Rce1 inhib	MT1-MMP act inh	MT1-MMP act inh RFP	CSC inhib	eIF4H FP inh	PABP polyA inh	others
Cc1cccc(NC(=O)CN(C)S(=O)(=O)c2cccs2)c1	·	-21	i	-3	0	-2	3	2
CCCC(=O)N1CC(=O)Nc2ccc(C)cc2C1c1ccc(F)cc1 (stereo not given)	5	-6	i	-1	1	-11	-12	-8
COc1cccc(OCC(O)CN2CCN(CCO)CC2)c1 (stereo not given)	·	-9	i	-1	4	-7	3	24
CCCOc1ccc(C(=O)CCC(=O)OCC(=O)N(CC)c2c(N)n(Cc3ccccc3)c(=O)[nH]c2=O)cc1	-15	-7	·	-2	-1	·	·	·
Cc1ccc(C(=O)NCCc2nnc(SCC(=O)Nc3nc(-c4ccccc4)cs3)n2C)cc1	-89	-12	i	-4	-2	-8	1	1
COc1ccc(CC(C#N)(CO)c2nc3ccccc3[nH]2)cc1 (stereo not given)	·	·	i	1	-1	-1	-3	-3
CC1(C)CC(=O)c2c(O)cc(OCC(=O)N3CCN(c4ccccc4)CC3)cc2O1	·	-6	i	1	-1	-5	-10	2
CC(C)c1ccc(N(CCc2ccccn2)C(=O)C(C)(C)C)cc1	-6	·	i	-5	-1	-9	·	·
O=C(CCC(=O)c1ccccc1)NC1CCCN(Cc2ccccc2F)C1 (stereo not given)	-6	-21	i	1	-1	-15	-8	-7
O=C(Nc1ccccc1)OCCNC(=O)c1ccccc1	·	-5	i	4	7	-3	4	-11
Cc1ccc2nc(C(C)O)[nH]c2c1 (stereo not given)	-9	-12	i	-3	0	-1	-5	1
CCCC(C)C(=O)OCC(=O)NCc1ccc(OC)c(OC)c1 (stereo not given)	-7	·	i	1	3	-2	-3	4
COc1ccccc1CNc1nc(C)c(C(=O)N(C)C)s1	-6	-21	i	2	3	·	-14	-7
COc1cc(C(=O)NC2=NCCS2)cc(OC)c1OC	·	-7	i	10	2	7	-6	1
O=C(C[n+]1cc(-c2ccc(F)cc2)n2c1CCC2)c1cccs1	-62	5	i	2	-3	-16	5	-15
Cn1c(NC(=O)c2cccs2)cc(=O)n(C)c1=O	5	-8	i	-2	-1	-2	-3	-4
COCCNC(=O)C1CCCN(Cc2ccc(Cl)cc2)CC1 (stereo not given)	-24	-12	·	2	4	·	·	·
CCOC(=O)/C(C#N)=C\C1=C(N2CCCC2)CC(C)(CC)OC1 (stereo not given)	·	3	·	-1	4	-30	10	-1
Cc1cnc(NC(=O)COc2ccccc2)s1	-199	7	i	16	2	-8	-13	-6
C[C@@H]1CN([C@@H](C)CO)S(=O)(=O)c2ccc(-c3cccc(C#N)c3)cc2O[C@@H]1CN(C)C(=O)c1ccc(F)cc1	-21&-13[16.7 µM]	3&36&28	·	-6	-1	·	·	·
COc1ccc(NC(=O)CCCC2CCCCC2)cc1S(=O)(=O)N1CCCCC1	1	·	i	4	-1	·	0	8
c1ccc(-n2ncc3c2ncn2c(C4CCCCC4)nnc32)cc1	·	·	i	·	·	·	-13	-7
CCN1CCN(C(c2cc3cc4c(cc3[nH]c2=O)OCO4)c2nnnn2C(C)(C)CC)CC1 (stereo not given)	-66	·	i	-6	-2	-9	0	4
CN1CCN(S(=O)(=O)c2ccc(Oc3ccc(F)c(Cl)c3)nc2)CC1	17	·	i	5	10	22	11	-17
CC1(C)CC(=O)C(C=NCCCN2CCOCC2)=C(O)C1	·	-21	i	1	4	-1	-12	-3
COc1cccc(/C=c2/s/c(=C(\C#N)C(=O)N3CCOCC3)n(-c3ccccc3)c2=O)c1	-17	-18	i	2	1	-4	-19	-11
COc1cc(C(=O)NCC(=O)N/N=C(C)\C=C\c2ccccc2)cc(OC)c1OC	20	·	i	8	3	-1	3	0
O=C(/C=C/c1ccccc1)N1CCN(CC(O)COc2ccccc2)CC1 (stereo not given)	·	-3	i	1	0	-3	-4	-3
O=C1Nc2ccccc2C(O)(C(=O)NCc2ccc3c(c2)OCO3)N1c1ccccc1 (stereo not given)	-5	4	i	2	-3	-16	-4	4
CCCCN(CCCC)C(=O)C1(P(=O)(c2ccccc2)c2ccccc2)CCC1	60*	2	i	-8	-2	11	-3	4
O=C1Nc2ccccc2SC1c1ccccc1Cl (stereo not given)	2	-27	·	-4	-4	·	·	·
CCCc1nc(SCC(=O)N2CCCCCC2)c2c(=O)n(C)c(=O)n(C)c2n1	·	·	i	·	·	-3	42	2
COc1cc(CNc2ccc(N3CCN(C(C)=O)CC3)cc2)ccc1OCc1ccccc1	-11	·	i	-3	-13	40	5	9
O=C(c1ccco1)N1CCN(S(=O)(=O)N2CCOCC2)CC1	·	-19	i	-1	1	-1	5	0
CC(=O)N1CCC2(CC1)C(C#N)=C(N)Oc1c2sc2nc(C)cc(C)c12	19	-23	i	-7	1	-9	3	10
CCn1cc(C(=O)NCc2ccccn2)c(=O)c2cc(S(=O)(=O)N3CCCCC3)ccc21	·	·	i	·	·	·	10	0
CSc1cccc(NC(=O)c2ccc(NC3=NC4CS(=O)(=O)CC4S3)cc2)c1 (stereo not given)	35	-16	i	-1	0	·	-10	2
COc1ccccc1CNC(=O)C(=O)NCC1OCCCN1S(=O)(=O)c1cccs1 (stereo not given)	11	0	i	-1	5	-25	20	6
CCc1nc2ccc(C(=O)NCCCN3CCCC3=O)cn2c1N(CC)CCOC	-25	-20	·	3	5	·	·	·
COc1cccc(NC(=O)CNCc2ccccc2)c1	6	-9	i	-5	-5	5	-2	6
COc1ccc(C2N(c3ccccc3)C(=S)N3CCCN23)cc1 (stereo not given)	-11	-2	i	0	1	-5	8	14
COc1cc(C#Cc2c(-c3cncn3C)n(C)c3ccc(-c4ccc(OC)nc4)cc23)cc(OC)c1	0	-25	·	-6	-3	84*	·	·
COc1ccc(CCNC(=O)c2cc3ccccc3oc2=O)cc1	-13	-10	i	-2	1	-10	-2	-11
COC(=O)CNC(=O)COC(=O)C(Cc1ccccc1)NC(=O)c1ccco1 (stereo not given)	-76	-7	i	1	4	13	1	2
O=C(NCc1cccnc1)c1cc(C2CCCCN2S(=O)(=O)c2cccs2)on1 (stereo not given)	13	-4	·	-1	-2	·	·	·
N#CC(c1ccccn1)(c1ncc(C(F)(F)F)cc1Cl)N1CCOCC1 (stereo not given)	-6	-16	i	-4	3	-9	-4	-14
CCOC(=O)CC(=O)CSc1nc2ccccc2c(=O)n1-c1ccc(C(=O)NCCOC)cc1	-59	-21	i	-2	6	-5	4	5
O=[N+]([O-])c1ccc(C2CNC(c3ccccc3)O2)cc1 (stereo not given)	·	0	·	-3	2	-1	-7	-7
O=C(Cc1cccc2ccccc12)N/N=C/c1ccc(Sc2cccc3cccnc23)o1	·	·	i	·	·	-2	38	51	eIF4H FP inh retest=-10;PABP polyA inh retest=14
COc1ccc(Cc2nc(-c3ccc(-n4cccc4)cc3)no2)cc1	23	-11	i	2	-7	16	-7	-5

The results go on.
SMILES	HIV Env fusion	UUG fidelity	Rce1 inhib	MT1-MMP act inh	MT1-MMP act inh RFP	CSC inhib	eIF4H FP inh	PABP polyA inh	others
Cn1c(SCC(=O)NC2CCS(=O)(=O)C2)nc2ccccc21 (stereo not given)	19	-10	·	4	4	-18	·	·
CN(CC(=O)Nc1ccccc1[N+](=O)[O-])Cc1ccc(Br)cc1	2	12	i	-4	-3	20	14	-1
C/C(=N\NC(=O)c1ccoc1C)c1ccccc1	-29	-1	i	-3	0	21	-2	-1
Cc1cccc(C)c1NC(=O)CSCC(=O)c1ccc(O)c(O)c1	2	50	i	24	-8	-17	3	-10
CCC(C)[C@H](NC(=O)N1CC(=O)Nc2ccccc21)C(=O)N[C@H](Cc1ccccc1)C(=O)O (stereo not given in full)	·	-5	i	-1	4	-13	-2	-7
COc1cccc(NC(=O)Cn2c(=O)n(-c3ccccc3)c(=O)c3oc4ccccc4c32)c1	-62	·	i	7	0	11	1	-15
CCCCN(C(=O)c1oc2ccc(OCC)cc2c1C)c1c(N)n(CC(C)C)c(=O)[nH]c1=O	1	-3	i	-14	-7	·	·	·
COc1cc(OC)cc(C(=O)NCC(=O)OCC(=O)N2c3ccccc3NC(=O)C2(C)C)c1	16	·	i	-5	1	·	9	15
CCN(CC)S(=O)(=O)c1ccc(C(=O)NC(=S)N2CCN(c3ccccc3O)CC2)cc1	8	-31	·	3	-6	·	·	·
CCCOc1ccc(/C=C/C(=O)N2CCN(c3ccccn3)CC2)cc1	13	·	i	0	2	2	7	-3
CC(C)CCN1CCN(Cc2cccc3nonc23)CC1CCO (stereo not given)	-1	-3	i	4	8	20	0	-3
CCOc1ccc(C(=O)NCC(=O)OCc2c(F)cccc2Cl)cc1OCC	·	-9	i	7	3	-9	4	-2
O=C(N1CCN=C1SCc1cccnc1)C12CC3CC(CC(C3)C1)C2	8	-18	i	1	-3	51	-6	-8
O=C(NCCc1nnc2ccc(N3CCCC3)nn12)c1ccccc1	10	-12	i	-1	-1	-4	28	-1
Cc1nc(=O)c(-c2ccccc2)c(C)n1CC1CCCO1 (stereo not given)	·	9	·	0	4	-4	9	7
Cc1csc(N/N=C/c2ccccc2F)n1	-36	-17	i	-1	-4	19	-5	3
O=c1[nH]c(-c2ccccn2)nc2sc(-c3ccccc3)cc12	-388	·	i	6	-14	·	19	-14

In the list so far, these contain fluorine.
SMILES	HIV Env fusion	UUG fidelity	Rce1 inhib	MT1-MMP act inh	MT1-MMP act inh RFP	CSC inhib	eIF4H FP inh	PABP polyA inh	others
CCCC(=O)N1CC(=O)Nc2ccc(C)cc2C1c1ccc(F)cc1 (stereo not given)	5	-6	i	-1	1	-11	-12	-8
O=C(CCC(=O)c1ccccc1)NC1CCCN(Cc2ccccc2F)C1 (stereo not given)	-6	-21	i	1	-1	-15	-8	-7
O=C(C[n+]1cc(-c2ccc(F)cc2)n2c1CCC2)c1cccs1	-62	5	i	2	-3	-16	5	-15
C[C@@H]1CN([C@@H](C)CO)S(=O)(=O)c2ccc(-c3cccc(C#N)c3)cc2O[C@@H]1CN(C)C(=O)c1ccc(F)cc1	-21&-13[16.7 µM]	3&36&28	·	-6	-1	·	·	·
CN1CCN(S(=O)(=O)c2ccc(Oc3ccc(F)c(Cl)c3)nc2)CC1	17	·	i	5	10	22	11	-17
N#CC(c1ccccn1)(c1ncc(C(F)(F)F)cc1Cl)N1CCOCC1 (stereo not given)	-6	-16	i	-4	3	-9	-4	-14
CCOc1ccc(C(=O)NCC(=O)OCc2c(F)cccc2Cl)cc1OCC	·	-9	i	7	3	-9	4	-2
Cc1csc(N/N=C/c2ccccc2F)n1	-36	-17	i	-1	-4	19	-5	3

From PubChem BioAssay
